# Compound activity deposited in PubChem BioAssay by ICCB-Longwood Screening Facility, Harvard Medical School.
# PV pol inh: poliovirus RdRp elongation inhibitors, primary screen, biochemical, fluorescence polarization, total intensity; % elongation, % (compound at 16.7 µg/mL); Genome polyprotein (Poliovirus type 1 (strain Mahoney)), P03300; poliovirus polymerase elongation; hits give low values; actives 0.66% (n = 150,000); in the data active = % elongation below about 90%; note: some results filed as inactive read as strong as hits
# Target sequence (P03300 1749-2209 limits assumed): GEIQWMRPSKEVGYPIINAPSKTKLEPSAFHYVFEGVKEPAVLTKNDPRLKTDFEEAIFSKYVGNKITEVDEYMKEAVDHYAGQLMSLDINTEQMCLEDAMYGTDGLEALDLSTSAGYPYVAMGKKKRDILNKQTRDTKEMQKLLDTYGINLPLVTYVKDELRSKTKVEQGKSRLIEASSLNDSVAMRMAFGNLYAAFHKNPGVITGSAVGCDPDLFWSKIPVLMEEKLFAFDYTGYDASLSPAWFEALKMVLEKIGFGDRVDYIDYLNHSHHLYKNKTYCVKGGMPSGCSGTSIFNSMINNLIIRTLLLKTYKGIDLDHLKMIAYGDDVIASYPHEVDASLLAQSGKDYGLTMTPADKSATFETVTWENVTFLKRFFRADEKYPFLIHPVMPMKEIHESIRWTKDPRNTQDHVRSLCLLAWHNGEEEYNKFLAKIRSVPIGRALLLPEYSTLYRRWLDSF
# Mtb MbtI inh: MbtI salicylate synthase inhibitors, primary screen, biochemical, fluorescence intensity; actives 0.89% (n = 100,000); inhibition, %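 (about 17 µg/mL by stock and volumes)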; AID 493033, 2011; purified MbtI enzyme, fluorescence intensity read-out;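 active = above 50% in both replicates, above 80% if mildly self-fluorescent; inactive = the rest, strongly fluorescent compounds included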;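 note: 0% = mean of negative and 100% = mean of positive controls; one replicate is shown; some compounds called inactive have numbers as strong as hits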
# Target sequence (P9WFX0 whole entry, looked up): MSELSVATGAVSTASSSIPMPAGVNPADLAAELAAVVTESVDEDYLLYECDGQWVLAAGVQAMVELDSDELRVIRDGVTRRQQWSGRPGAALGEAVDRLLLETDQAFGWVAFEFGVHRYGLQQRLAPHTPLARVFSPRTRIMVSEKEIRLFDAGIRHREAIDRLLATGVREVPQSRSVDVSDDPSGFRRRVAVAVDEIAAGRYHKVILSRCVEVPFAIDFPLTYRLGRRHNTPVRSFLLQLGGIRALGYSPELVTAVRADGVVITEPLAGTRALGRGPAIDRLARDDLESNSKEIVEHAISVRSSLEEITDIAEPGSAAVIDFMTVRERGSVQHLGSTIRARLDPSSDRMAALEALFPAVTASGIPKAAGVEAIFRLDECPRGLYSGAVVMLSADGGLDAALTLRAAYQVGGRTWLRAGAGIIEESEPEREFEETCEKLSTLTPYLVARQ
# Mtb MenB inh: M. tuberculosis MenB inhibitors, primary screen, biochemical, absorbance; 1,4-dihydroxy-2-naphthoyl-CoA synthase (Mycobacterium tuberculosis (strain ATCC 25618 / …; MenB enzyme assay, absorbance read-out; some hits fall short of the stated cut; inhibition, %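 (about 12 µg/mL by stock and volumes)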; actives 0.43% (n = 100,000);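 active = mean of two replicates above 30%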;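 note: 0% = no compound and 100% = wells with inactive enzyme; the first replicate is given; strong numbers were not always called active; inactives centre near -10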
# PV pol inh intensity: second read-out of PV pol inh, no call of its own (marks repeat the call); % elongation; measured here: total intensity read-out; formula for this scale not given here;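 total fluorescence in place of polarization; lower means less elongation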
# Active calls of the source: *; i = inactive; nt = no result given; & = joins results of further samples. Random draw from the library; 1.8% or so of the library scored in one or more.
smiles,PV pol inh intensity,Mtb MenB inh,Mtb MbtI inh,PV pol inh
NC(=O)CSc1n[nH]c(COc2ccc(Cl)cc2)n1,107,-24,-15,104
COc1ccc(CN2C(=O)CNC2=O)cc1,107,-6,0,102
CC(C)c1ccc(NC(=O)CSc2ncn[nH]2)cc1,106,nt,-13,100
Cc1cc(NCC(c2ccccc2)N(C)C)nc2ccccc12 (configuration not stated),98,-5,104,102
CCOc1ccc(C(=O)c2nc3ccccc3s2)cc1,102,nt,-26,100
O=C(O)Cc1nnn(C23CC4CC(CC(C4)C2)C3)n1,101,1,-1,101
CC(C)[C@H](N)c1nnc(SCC(=O)N(C)C)o1,102,-22,0,103
CN(C)C(=O)c1ccc(-n2cnc3ccccc3c2=O)cc1,99,-1,-3,102
CN(C)/C=N/c1cnc(C(=O)c2ccc(Cl)cc2)n1C,110,-44,-8,106
CSc1nsc(SC)c1C(=O)NC(=O)Nc1ccc(Cl)cc1,110,-15,-6,109
CC(=O)N(CCc1c(C)[nH]c2ccccc12)C(C(=O)Nc1c(C)cccc1C)c1ccc(Cl)cc1 (configuration not stated),110,-3,nt,105
CC1=NS(=O)(=O)c2cc(Cl)ccc2N1,102&101&101&100,-5&5&-23,-1&2&-7,98&99&100&101
CC(NC1CC(=O)N(C)C1=O)c1ccccc1 (configuration not stated),100,-19,-1,99
CCOc1ccc(C(=O)CCC(=O)N2CCN(C(=O)C3CC3)CC2)cc1,118,-18,-10,111
NCCCc1nc2cc3sc(CCCN)nc3cc2s1,95,-22,nt,97

# Part of the list above in order of SMILES length, descending.
smiles,PV pol inh intensity,Mtb MenB inh,Mtb MbtI inh,PV pol inh
CN(C)/C=N/c1cnc(C(=O)c2ccc(Cl)cc2)n1C,110,-44,-8,106
Cc1cc(NCC(c2ccccc2)N(C)C)nc2ccccc12 (configuration not stated),98,-5,104,102
NC(=O)CSc1n[nH]c(COc2ccc(Cl)cc2)n1,107,-24,-15,104
CC(NC1CC(=O)N(C)C1=O)c1ccccc1 (configuration not stated),100,-19,-1,99

# Additional records follow.
smiles,PV pol inh intensity,Mtb MenB inh,Mtb MbtI inh,PV pol inh
CC12CN3CC(C)(CN(C1)C(=O)c1ccccc1C3=O)C2=O,103,-21,0,101
COc1cccc(N(C)C(=O)c2nn(Cc3ccccc3)c(=O)c3ccccc23)n1,110,-9,9,107
CCN(CC)C(C(=O)Nc1ccc2c(c1)OCO2)c1ccccc1 (configuration not stated),104,7,3,100
O=C(O)/C=C/c1ccc(OC(F)(F)C(F)C(F)(F)F)cc1 (configuration not stated),108,3,-7,103
COc1ccc(-c2cc(C(=O)OCC(=O)c3ccccc3)c3cccc(Cl)c3n2)cc1,108,-21,96,101
Cc1onc(-c2c(Cl)cccc2Cl)c1NC(=O)O/N=C/c1ccccc1,101,-1,2,100
CCCC(=O)NC1=C(C#N)C2(CCCC2)Cc2ccccc21,104,-56,-7,101
COC(=O)N/N=C1/C(=O)c2cccc3cccc1c23,99,-9,-1,99
CC(=O)Oc1ccccc1C(=O)N(C(C)C)C(C)C,100,-28,-6,104
CC1CCc2cc(F)ccc2N1C(=O)Cn1cc(C#N)c2ccccc21 (configuration not stated),99,-12,-6,98
S=C1NC2(CCCC2)N=C1c1ccccc1,106,-41,-4,103
CCOC(=O)c1sc(N=NC2=C(O)CCCC2=O)c(C(=O)OCC)c1C,53*,-40,14,42*
O=C(NN1C(=O)C2C3C=CC(C3)C2C1=O)C1CC=CCC1 (configuration not stated),102,2,-57,100
CCCN1C(=O)CC(=O)N=C1SCC(=O)c1cc(C)n(-c2ccc(F)cc2)c1C,106,-45,-12,103
O=C(NCc1cccs1)c1cc2sccc2n1Cc1ccccc1,103,-38,3,103
COc1ccc(C2=C(C)C(N3CCc4ccccc43)=NS2(=O)=O)cc1,101,-18,8,102
CC(C)(C)n1cn[nH]c1=S,105,-9,11,97
OCCNCC(O)CN1c2ccccc2Sc2ccccc21 (configuration not stated),100,0,-10,103
CC(=O)Nc1ccc(S(=O)(=O)NCC2CCC(C(=O)O)CC2)cc1 (configuration not stated),99,8,10,101
COc1ccc2oc(=O)c(C(=O)O)cc2c1,103,3,30,96
CCn1c(=O)c2sccc2n2c(CCCC(=O)NCCc3ccccc3)nnc12,103,-14,8,105
CCCC(CCC)c1nc2ccncc2[nH]1,94,4,nt,95
COc1cc(Cn2cnc3c(cnn3CCO)c2=O)cc(OC)c1,102,7,4,97
COc1cc(N)c(Cl)cc1C(=O)OCC(=O)Nc1ccc(N2CCOCC2)cc1,95,-23,3,100
Cc1ccccc1/C=N/N1C(=O)c2ccc3c4c(ccc(c24)C1=O)CC3,149,-7,nt,118
CN1CCc2c(c(N3CCCCC3)nc3n[nH]c(N)c23)C1,106,-6,nt,107
O=C(/C=C/c1ccco1)N1CCN(C(c2ccccc2)c2ccccc2)CC1,100,-9,11,102
O=C(CC(C(=O)O)C1CCCO1)Nc1ccc(F)cc1 (configuration not stated),102,-17,-4,102
Cn1nc(C(N)=O)c2ccccc2c1=O,107,-25,5,99
O=C(Nc1nc(-c2ccccc2)cs1)C12CC3CC(CC(C3)C1)C2,92,3,-1,102
Cc1ccc2cc(CNCC(C)O)c(=O)[nH]c2c1C (configuration not stated),102,-19,54,101
Oc1c(C(c2ccc(C(F)(F)F)cc2)N2CCCC2)ccc2cccnc12 (configuration not stated),156,-95,11,133
Cn1nc(C(=O)NC2CCCCCC2)ccc1=O,98,-1,9,99
Cc1ccc(Cl)cc1NC(=O)COC(=O)c1ccc(Br)o1,105,nt,-9,100
CCC(CC)c1nc(C(N)=O)c2[nH]c(=O)n(-c3ccc(OC)c(OC)c3)c2n1,101,0,4,100
C=CCn1c(C)cc(C(=O)COn2nnc3ccc(Cl)cc32)c1C,108,-35,0,107
O=C(OCCN1CCCC1=O)c1ccc(F)cc1F,111,4,-1,103
O=C(NCCc1cnc[nH]1)NC12CC3CC(CC(C3)C1)C2,104,-10,-17,102
C/C(=N\NC(N)=O)c1cccc(Cl)c1,109,-10,-11,103
CCN1C(=O)c2cccc3c(NC(=O)c4ccncc4)ccc1c23,107,-94,-8,101
CCCNC(=O)C1CC(=O)N(c2ccc(C)c(Cl)c2)C1 (configuration not stated),105,-1,8,102
COc1cccc(C2(O)CCN(CC(=O)N3CCCC3)CC2)c1,104,-6,-1,102
CCS(=O)(=O)N(C)c1ccc(C(=O)Nc2cc(C)ccc2C)cc1,102,-9,-22,103
CC1(C)C=C(c2ccc(C(=O)O)s2)CC(C)(C)N1,102,-14,23,100
CSc1nc(NC(=O)NS(=O)(=O)c2ccccc2Cl)nc(C2CC2)n1,95,-16,-6,102

# Taken from the entries so far, two compounds:
smiles,PV pol inh intensity,Mtb MenB inh,Mtb MbtI inh,PV pol inh
CC1(C)C=C(c2ccc(C(=O)O)s2)CC(C)(C)N1,102,-14,23,100
CSc1nc(NC(=O)NS(=O)(=O)c2ccccc2Cl)nc(C2CC2)n1,95,-16,-6,102

# (cont.)
smiles,PV pol inh intensity,Mtb MenB inh,Mtb MbtI inh,PV pol inh
CCOC(=O)C1=C(C)Nc2ncnn2C1c1cccnc1 (configuration not stated),103,1,2,100
CN=Cc1c(O)[nH]c(=O)[nH]c1=O,100,-42,-6,102
CCc1ccccc1N(CC)C(=O)c1cc2c(s1)-c1c(C)cccc1OC2,102,-32,103,99
Cc1ccc(SC(=O)c2sc(-c3ccccc3)nc2C)cc1,102,5,5,105
Cc1cc(SCC(=O)N2CCN(C)CC2)nc(SCC(=O)N2CCN(C)CC2)n1,109,7,5,100
O=c1[nH]nc(SCc2ccc(Cl)cc2Cl)c(=O)[nH]1,100,2,nt,98
COC(=O)C1=C(N)C(C(=O)OC)=c2s/c(=C/c3ccccc3)c(=O)n2C1c1ccccc1 (configuration not stated),102,-3,nt,105
CCCc1cc2c(=O)c(-c3ccc4c(c3)OCCO4)c(C(F)(F)F)oc2c(C=[N+](C)C)c1O,111,-26,nt,103
COc1ccc(N2CC(C(=O)Nc3nc4ccc(S(C)(=O)=O)cc4s3)CC2=O)cc1 (configuration not stated),103,-7,6,102
CCCc1cc(C(=O)N/N=C/c2cnn(C)c2)sc1C,93,-33,12,104
COc1ccc(-c2nc(-c3ccc(C(F)(F)F)cc3)no2)cc1OC,103,-6,-6,103
CC(=O)N1c2ccc(S(=O)(=O)N3CCCC(C(=O)NC4CCCC4)C3)cc2CC1C (configuration not stated),105,-12,-30,101
Oc1ccccc1-c1nnc(-c2ccccc2)o1,102,-26,11,102
Cc1nn(-c2ccccc2)c(C)c1CN(C)Cn1c(=O)oc2ccccc21,104,-18,-1,103
O=C(NC1CC1)c1cc(-c2ccccc2)nn1-c1ccccc1,106,-23,7,101

# Quoted at random: three entries already listed
smiles,PV pol inh intensity,Mtb MenB inh,Mtb MbtI inh,PV pol inh
CC(NC1CC(=O)N(C)C1=O)c1ccccc1 (configuration not stated),100,-19,-1,99
Cc1nn(-c2ccccc2)c(C)c1CN(C)Cn1c(=O)oc2ccccc21,104,-18,-1,103
Cc1ccc(SC(=O)c2sc(-c3ccccc3)nc2C)cc1,102,5,5,105

# Remaining list, next part.
smiles,PV pol inh intensity,Mtb MenB inh,Mtb MbtI inh,PV pol inh
CCOC(=O)N1CCC(NS(=O)(=O)c2ccc(C)c(Cl)c2)CC1,106,-8,-4,105
CCSc1nnc(-c2cccc(S(=O)(=O)N(CC)CC)c2)o1,103,-10,5,106
CC(C)OC(=O)C(C)N=Cc1ccccc1 (configuration not stated),111,-38,nt,105
O=C(C1=C(O)C(=O)N(CCN2CCOCC2)C1c1ccccc1)c1ccco1 (configuration not stated),103,21,8,100
COc1ccc2ccccc2c1/C=N/NC(=O)C1CC1,107,-5,-9,102
Cc1ccc2oc(=O)cc(CN3CC(C)OC(C)C3)c2c1 (configuration not stated),107,-12,8,101
COc1ccc(C2CCCCCN2C(=O)CCN2C(=O)COc3ccccc32)cc1 (configuration not stated),97,-8,14,98
O=C(COc1ccccc1C(=O)O)NCCc1ccccc1,101,nt,-14,100
COc1cc(/C=C2\SC(=O)NC2=S)ccc1O,127,-97,79*,86
O=C(NC1CCCCCC1)C1CCCN(C(=O)N2CCOc3ccccc32)C1 (configuration not stated),101,5,-9,103
O=C(c1ccccn1)c1ccc2ccccc2n1,105,8,0,98
CC(C)(C)c1ccc(OCc2nnc(SCC(N)=O)n2-c2ccccc2)cc1,104,-20,nt,108
CCN1C(=O)c2ccccc2S(=O)(=O)c2ccc(C(=O)N3CCc4ccccc43)cc21,103,-1,0,99
CCN1CCN(C(=O)C23CC4CC(C)(CC(C)(C4)C2)C3)CC1,106,-15,-9,102
CN1CCC/C1=C1\C(=O)N(c2ccccc2)N=C1NC(=O)Nc1cccc(Cl)c1,108,-6,12,102
CC1=C(c2ccc(C)cc2)[N+](=O)C(C)(C)N1[O-],105,-5,11,103
CC1CCC(NC(=O)c2ccc(N3C(=O)CCC3=O)cc2)CC1 (configuration not stated),91,-28,3,102
N#Cc1cccnc1N1CCN(C(=O)Nc2cccc3ccccc23)CC1,110,-45,-35,105
O=c1cc(CN2CC=C(c3ccccc3)CC2)nc2scc(-c3ccccc3)n12,112,2,-3,109
Cc1oc2c(c1C(N)=O)CCCC2,90,-24,nt,98
COc1ccccc1NS(=O)(=O)c1ccc2oc(SC)nc2c1,113,6,-7,105
CCc1cc(-c2n[nH]c(CCC(=O)O)c2-c2nc3ccccc3n2C)c(O)cc1O,108,-13,nt,103
Cc1ccc(NC(=O)C/C(N)=N/O)cc1C,103,15,-24,100
CCOC(=O)C1CCCN(CC(=O)Nc2nccs2)C1 (configuration not stated),103,-85,-7,105
CCNc1nc(NN)nc(NCC)n1,109,-7,-5,104
CN(C(=S)SCC1=CCS(=O)(=O)C1)C1CCS(=O)(=O)C1 (configuration not stated),103,-11,-16,104
Cc1ccc(C)c(NC(=O)C(Sc2cccc[n+]2[O-])c2ccccc2)c1 (configuration not stated),104,nt,-3,105
CCOC(=O)C1=C(C)NC2(O)CC1C1COC2O1 (configuration not stated),101,-16,nt,104
CN(CCC#N)C(=S)Nc1ccc(S(=O)(=O)N2CCOCC2)cc1,105,-21,2,101
O=C1c2ccccc2-c2n[nH]c(=S)nc21,69*,i,27,76*
CCN(CC)CCCN1C(=O)CSC1c1ccc2c(c1)OCO2 (configuration not stated),100,16,2,101
C=CCOc1nc(NCC)nc(N(C)C)n1,105,-24,-143,104
O=C1/C(=C/c2ccccc2O)N=C2CCCCCN12,111,-115,-11,104
COc1nc(NC(=O)c2ccc(F)cc2)nc(OC)c1-c1ccccc1,96,-5,0,98
Cc1ccc(CS(=O)(=O)Cc2ccc(C(=O)NC3CC3)o2)cc1,100,9,11,100
CC(C)(C)c1cc(NC(=O)CSc2ccc(S(=O)(=O)N3CCCC3)cn2)on1,105,-5,1,108
